Assay outcomes as filed in PubChem BioAssay.
HCMV UL50-53 inh = inhibitors of HCMV UL50-UL53 interaction, biochemical, HTRF; normalized percent inhibition; inhibition, % (no concentration beside the values); 0.15% of 190,000 active;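 active means both replicates at 50% or more, plus weaker picks with an unusually low signal ratio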;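 further: stock transfer was 100 nL into about 20 µL; 0% = negative control wells and 100% = wells with untagged competitor protein; inactives centre near -12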
Sa growth inh = S. aureus growth inhibition at 42 and 30 °C, primary screen, LtaS inhibitor project, RN4220, two temperatures; OD600, 20 h, 42 °C; hits give low values; relative growth, % (no concentration beside the values); 0.53% of 170,000 active; AID 720641, 2013;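 active means growth at 42 °C up to 50% and 20 or more points under that at 30 °C, or under 10% at both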;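 further: 300 nL library stock went into each well; scaled to the means of positive and negative controls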
GIV Gai3 FP = inhibitors of GIV peptide binding to Galpha-i3, primary screen, biochemical, fluorescence polarization, FITC-GIV GBA peptide, rat Galphai3; Guanine nucleotide-binding protein G(i) subunit alpha-3 (Rattus norvegicus), P08753; 90 min; hits give low values; scaled: aluminum fluoride 0%, vehicle 100%; percent of control (FP), % (test concentration not listed); 0.42% of 210,000 active;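 active means replicate mean at 85% of control or lower, very high polarization wells dropped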;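 further: wells of about 15 µL received 100 nL stock; the first replicate is given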
Target sequence (P08753 whole entry, looked up): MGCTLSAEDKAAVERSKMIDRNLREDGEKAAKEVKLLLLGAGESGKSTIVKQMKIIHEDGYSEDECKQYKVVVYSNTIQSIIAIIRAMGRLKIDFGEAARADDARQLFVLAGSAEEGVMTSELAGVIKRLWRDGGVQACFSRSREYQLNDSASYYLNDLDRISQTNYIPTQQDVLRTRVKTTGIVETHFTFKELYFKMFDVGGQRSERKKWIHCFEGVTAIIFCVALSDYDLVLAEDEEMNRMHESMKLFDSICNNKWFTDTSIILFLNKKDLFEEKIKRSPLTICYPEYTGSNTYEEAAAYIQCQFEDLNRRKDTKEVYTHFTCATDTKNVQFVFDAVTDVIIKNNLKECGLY
Sa growth inh second temp = further read-out of Sa growth inh, marked with its call; relative growth, %; measured here: growth at 30 °C;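 optical density after 20 h as mean of two plates; 100% = untreated growth and lower means inhibition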
Starred values were filed as active, the others as inactive; / = no result given; & = joins results of further samples.

Results follow in this order: HCMV UL50-53 inh, Sa growth inh, Sa growth inh second temp, GIV Gai3 FP
[1] Cc1noc(C)c1CN1CCN(CC(=O)Nc2ccc(Cl)c(C(F)(F)F)c2)CC1
  -20.3, 76.6, 78.3, /
[2] O=C(O)c1ccc(CSc2nnc(COc3ccc(Cl)cc3Cl)o2)cc1
  /, 91.1, 36.1, 99.5
[3] CSC(=CC(=O)c1ccc(Cl)cc1)SC
  -32.9, 89.1, 80.9, 103.3
[4] CCn1c(CNC(=O)C23CC4CC(CC(C4)C2)C3)nnc1SCC(=O)Nc1ccc(F)cc1
  2.0, 108.8, 79.0, 105.9
[5] NC(=O)NC(=O)COc1ncnc2ccccc12
  6.6, 87.3, 100.5, /
[6] CCCSc1nc2cc(C)c(C)cc2[nH]1
  -20.0, 79.2, 60.5, /
[7] CC1(C)CCC=[N+]1[O-]
  -5.9, /, /, 107.2
[8] COc1ccc(C(F)(F)F)cc1N
  -21.9, 77.7, 86.5, 102.9
[9] CC(=O)Nc1ccc(NC(=O)CC2C(=O)Nc3ccccc3N2C(C)=O)cc1 (centres undefined)
  -2.9, 107.3, 92.1, 102.4
[10] Cc1ccc(O)c(C(=O)c2cnn(C(=O)Cc3csc(C)n3)c2)c1
  1.5, 98.7, 92.9, /
[11] CCCCn1nc(C)c(C(=O)N2CCN(Cc3ccc(OC)c(F)c3)CC2)c1Cl
  -5.8, 104.4, 97.2, /
[12] c1cc(N2CCCC2)ccc1-c1noc(C2CCCC2)n1
  -13.3, /, /, 104.5
[13] O=C(/C=C\Nc1cccc(N/C=C\C(=O)c2ccccc2)c1)c1ccccc1
  -1.3, 91.3, 91.7, /
[14] CSc1ccc(CCNC(=O)C2CCCN(c3nnc(-n4cccc4)s3)C2)cc1 (centres undefined)
  -13.9, 99.7, 88.9, 105.1
[15] CC1=C(C#N)C(=O)NC(C)(C)C1
  -38.5, 100.2, 95.3, 107.3
[16] N#CC(N)c1ccc(F)cc1 (centres undefined)
  9.4, 100.8, 95.2, /
[17] Cc1ccc(Nc2nnc(C)c(=O)[nH]2)cc1Cl
  -8.1, /, /, 100.7
[18] Cc1nnsc1C(=O)Nc1ccc2c(c1)C(=O)OC2
  -17.3, 108.0, 85.5, 95.5
[19] CCOC(=O)N1C/C(=C/c2ccsc2)C(=O)/C(=C\c2ccsc2)C1
  12.2, 104.2, 94.2, /
[20] CN(Cc1ccccc1)C(=O)c1cn(C)c2ccc(S(=O)(=O)N3CCCCC3)cc2c1=O
  -17.2, 95.3, 98.5, 99.0
[21] Cc1ccc(C(=O)/C=c2\[nH]c(=O)/c(=C/c3cccnc3)s2)cc1
  /, 97.5, 76.2, 156.5
[22] Cc1oc(-c2cccc(Br)c2)nc1CN1CCC(C(=O)NCc2ccccc2)CC1
  /, 80.2, 88.6, 104.9
[23] COC(CNC(=O)c1ccc(/C=C2/Sc3ccccc3N(Cc3cccc(C)c3)C2=O)cc1)OC
  /, 95.6, 96.5, 104.6
[24] Cc1cc(C)n(C(=O)C2CC=CCC2C(=O)O)n1 (centres undefined)
  -7.5, 92.9, 86.2, 99.5
[25] CCC(=O)N1CCc2cc(S(=O)(=O)CCC(=O)N3CCN(c4ccccc4)CC3)ccc21
  -17.7, 85.4, 94.4, 97.2
[26] CCCCOc1ccc(C(=O)N/C(=C\c2ccc(Br)cc2)C(=O)NC2CCCCC2)cc1
  -17.1, 96.8, 93.6, 94.0
[27] NC(=O)CSc1nnc(-c2c[nH]c3ccccc23)n1CC1CCCO1 (centres undefined)
  -17.5, 77.8, 91.3, /
[28] CCOc1cccc(C2c3[nH]c4ccccc4c3CCN2C(=O)Cc2cccc(OCC)c2OCC)c1 (centres undefined)
  -7.1, 99.0, 84.2, 104.7
[29] CCOC(=O)C1SC(c2ccc(Cl)cc2)C(C#N)C1(O)c1ccccc1 (centres undefined)
  -4.9, 115.5, 82.1, 104.2
[30] COc1ccc(-c2nc3ccc(NS(=O)(=O)c4ccccc4)cc3o2)cc1
  -18.3, 107.5, 83.9, 98.8
[31] Cc1cccc(CC2SC(=Nc3ccc(Br)cc3)NC2=O)c1 (centres undefined)
  -31.4, 131.6, 87.5, /
[32] NC(=O)c1c(Nc2nc3c(F)cccc3s2)sc2c1CCCC2
  -19.0, 69.4, 48.3, 246.7
[33] Cc1ccc2nc3c(cc(C#N)c(=O)n3-c3nnc(SCc4ccc(F)cc4)s3)c(=O)n2c1
  -50.4, 101.1, 82.6, 102.6
[34] CCC(=O)Nc1ccc(Cl)c(-c2nc3ccccc3[nH]2)c1
  2.9, 103.9, 83.7, 99.3
[35] COC(=O)c1cc(NC(=O)N2c3ccccc3Sc3ccccc32)cc(C(=O)OC)c1
  /, 118.2, 69.3, 98.8
[36] COc1ccc(Cc2nnc(C(=O)NCCc3ccccc3)o2)cc1OC
  -20.3, 103.2, 87.0, 96.8
[37] CCCCCNC(=O)CCCCCn1c(=O)[nH]c2ccsc2c1=O
  -5.1, 95.0, 84.1, 102.8
[38] CN1CCC(N(C)C(=O)Nc2cccc3ccccc23)CC1
  -36.1, 77.8, 91.6, 100.4
[39] CCOC(=O)c1c(C)c(S(=O)(=O)NC(C)CC)c(C)n1C (centres undefined)
  7.2, /, /, 102.1
[40] COc1ccc(-c2c(C#N)c(SCC(=O)c3ccccc3)nc3c2C(=O)CC(C)(C)C3)cc1
  /, 94.0, 89.5, 101.5
[41] Cc1ccccc1NC(=O)CC1C(=O)NCCN1C(=O)c1ccc(F)cc1 (centres undefined)
  -10.8, /, /, 95.9
[42] Cc1cccc(N2CCN(C(=O)c3ccc4cn[nH]c4c3)CC2)c1C
  -17.3, /, /, 104.1
[43] COc1ccccc1C1c2c(-c3ccc(Cl)cc3)n[nH]c2C(=O)N1c1ccc(C)cc1 (centres undefined)
  -29.8, 110.6, 98.6, 105.2
[44] COc1ccc(CN(Cc2cccs2)C(=O)c2ccccc2-n2cnnn2)cc1OC
  -17.2, 91.0, 90.2, /
[45] O=C(NCCN1C(=O)S/C(=C\c2cccnc2)C1=O)c1cccs1
  -57.5, 94.4, 97.6, /
[46] Cc1cccc(N2C(=O)CC(c3cn(C)c4ccccc34)C2=O)c1 (centres undefined)
  -7.1, 103.0, 98.2, 115.5
[47] CCc1[nH]nc2c1C1(C(=O)Nc3ccc(Cl)cc31)C(C#N)=C(N)O2 (centres undefined)
  -12.6, 96.8, 64.6, 106.7
[48] COc1ccc(S(=O)(=O)Nc2nc(O)c(C3=c4cc([N+](=O)[O-])ccc4=NC3=O)s2)cc1
  -35.5, /, /, 107.0
[49] CC(C)Cn1c(=O)c2sccc2n2c(CCCC(=O)NCc3ccccc3Cl)nnc12
  /, 112.5, 95.9, 106.1
[50] CC(O)c1nc2ccccc2n1C(=O)c1ccc(OCc2ccccc2)cc1 (centres undefined)
  -23.6, 113.6, 76.4, /
[51] NC(=O)c1ncc(C(F)(F)F)cc1Cl
  -4.0, /, /, 102.7
[52] COc1ccc(Nc2cc(-n3nc(C)cc3C)ncn2)cc1
  -31.4, /, /, 102.7
[53] CN1/C(=C\C(=O)C2CCCCC2)C(C)(C)c2ccccc21
  /, 92.0, 85.9, 110.0
[54] C=CCn1c(NC(C)c2cc(Cl)ccc2O)nc2ccccc21 (centres undefined)
  /, 93.9, 62.0, 103.0
[55] CCOc1cc2[nH]c(=O)n(CCCC(=O)NCCc3ccccc3)c(=O)c2cc1OCC
  -17.1, 106.7, 87.3, 99.6
[56] COC(=O)c1ccccc1NC(=O)Nc1cccc(OCc2cc(=O)n3cccc(C)c3n2)c1
  /, 121.1, 106.6, 103.7
[57] Cn1cc(CCC(=O)NC2CCN(Cc3ccccc3)CC2)c2ccccc21
  -28.9, /, /, 102.3
[58] CC1CCCC(NC(=O)CN2N=C(c3ccc(Cl)cc3)CCC2=O)C1C (centres undefined)
  -24.1, 84.7, 59.6, 97.6
[59] O=C(NCCn1c(-c2ccccc2)nc2cccnc21)c1ccccc1F
  4.5, /, /, 109.3
[60] COc1ccc(CNC(=O)CSCc2nc(-c3ccccc3F)oc2C)cc1
  6.6, 93.3, 88.9, 106.3

The list goes on.
Results follow in this order: HCMV UL50-53 inh, Sa growth inh, Sa growth inh second temp, GIV Gai3 FP
[61] COc1ccccc1N1CCN(Cc2nc(-c3ccc(Br)cc3)cs2)CC1
  -0.8, 90.2, 93.8, 104.7
[62] CCOC(=O)c1c(C)c(C(=O)NCc2ccc(OC)cc2)c(C)n1CC
  -31.1, 99.8, 84.4, 101.7
[63] NC(=O)CSc1ncc2c(n1)-c1ccccc1N(Cc1cccc(F)c1)S2(=O)=O
  /, 91.5, 83.8, 104.1
[64] COC(=O)c1scc2c(N3CCC(n4cccc4)CC3)cc(C(F)(F)F)nc12
  -43.7, 106.6, 87.7, 128.7
[65] COc1cc(NS(C)(=O)=O)ccc1Nc1c2ccccc2nc2ccccc12
  -109.0, /, /, 108.5
[66] Cc1cc(C)c2c(-n3cccc3)nn(Cc3ccc(C(=O)NCCC(C)C)cc3)c2n1
  -9.4, /, /, 108.4
[67] CC(=O)Nc1ccc(Cl)c(-c2nc3cc(Cl)ccc3o2)c1
  8.4, 88.8, 75.5, 112.5
[68] NC(=O)c1cccc(CC(=O)c2ccccc2)c1
  -12.5, 97.1, 83.7, 105.8
[69] COc1cc(C2C(C#N)=C(N)OC3=C2C(=O)CCC3)ccc1OC(=O)N1CCOCC1 (centres undefined)
  -19.3, /, /, 102.7
[70] Cc1ccc(C(=O)CCc2nc3ccccc3s2)cc1C
  -14.5, 102.5, 87.9, /
[71] CC(C)C(=O)Nc1ccc2nc(SCCOc3ccccc3)sc2c1
  -22.0&-20.2, 102.5, 86.3, 103.4&101.8
[72] CC(NC(=O)Nc1ccccc1)C(=O)N1CCc2ccccc21 (centres undefined)
  -5.2, 93.1, 95.0, /
[73] O=C(Nc1nn[nH]n1)c1ccc(S(=O)(=O)N2CCCCC2)cc1
  -9.2, 91.5, 93.2, /
[74] COc1ccc(CC(C)(N)C(=O)O)cc1OC (centres undefined)
  1.8&-20.3, 100.1, 94.4, /
[75] Cc1ccc(CNC(=O)CCCN2C(=O)c3cccnc3Oc3ccc(Cl)cc32)cc1
  7.2, 76.3, 95.3, 116.5&100.5

Compound profiles, as listed above. Order of screens: HCMV UL50-53 inh, Sa growth inh, Sa growth inh second temp, GIV Gai3 FP
Listed for CC(NC(=O)Nc1ccccc1)C(=O)N1CCc2ccccc21 (centres undefined) = -5.2, 93.1, 95.0, /
Listed for Cc1cccc(CC2SC(=Nc3ccc(Br)cc3)NC2=O)c1 (centres undefined) = -31.4, 131.6, 87.5, /

The list goes on.
Results follow in this order: HCMV UL50-53 inh, Sa growth inh, Sa growth inh second temp, GIV Gai3 FP
[76] COc1cc(NS(=O)(=O)c2c(C(=O)N3CCCCC3)c(C)n(C)c2C)cc(OC)c1OC
  /, 104.3, 86.9, 96.5
[77] CCOc1ccc(N(CC)C(=O)COc2cc(=O)n(CC)c3ccccc23)cc1
  /, 34.3, 26.9, 100.4
[78] Cc1ccc(-n2c(=O)c3oc4ccccc4c3n(CC(=O)Nc3ccc(F)c(Cl)c3)c2=O)cc1C
  /, 89.5, 89.3, 102.6
[79] O=S1(=O)CCC(Cc2n[nH]c(=S)o2)C1 (centres undefined)
  3.8, 96.8, 87.3, /
[80] COC(=O)c1cc2sc(C)cc2n1Cc1ccccc1
  -31.7, 99.7, 87.0, 101.9
[81] c1ccc(Cc2nc(NCC3CCCO3)c3c4c(sc3n2)CCCC4)cc1 (centres undefined)
  -7.3, /, /, 106.7
[82] COc1ccccc1S(=O)(=O)Cc1ccc(C(=O)NCCN(C)C)o1
  6.1, 102.5, 85.9, 102.8
[83] Cc1cc(C)cc(NC(=O)Cn2cccc2)c1
  16.4, /, /, 102.4
[84] COc1ccc2c(c1)-c1nc(NC(=O)c3cc(Cl)ccc3OC)sc1CC2
  -10.2, 83.6, 95.7, 99.5

Among those listed so far, these have an aryl thioether with sulfur outside any ring:
Results follow in this order: HCMV UL50-53 inh, Sa growth inh, Sa growth inh second temp, GIV Gai3 FP
[2] O=C(O)c1ccc(CSc2nnc(COc3ccc(Cl)cc3Cl)o2)cc1
  /, 91.1, 36.1, 99.5
[4] CCn1c(CNC(=O)C23CC4CC(CC(C4)C2)C3)nnc1SCC(=O)Nc1ccc(F)cc1
  2.0, 108.8, 79.0, 105.9
[6] CCCSc1nc2cc(C)c(C)cc2[nH]1
  -20.0, 79.2, 60.5, /
[14] CSc1ccc(CCNC(=O)C2CCCN(c3nnc(-n4cccc4)s3)C2)cc1 (centres undefined)
  -13.9, 99.7, 88.9, 105.1
[27] NC(=O)CSc1nnc(-c2c[nH]c3ccccc23)n1CC1CCCO1 (centres undefined)
  -17.5, 77.8, 91.3, /
[33] Cc1ccc2nc3c(cc(C#N)c(=O)n3-c3nnc(SCc4ccc(F)cc4)s3)c(=O)n2c1
  -50.4, 101.1, 82.6, 102.6
[40] COc1ccc(-c2c(C#N)c(SCC(=O)c3ccccc3)nc3c2C(=O)CC(C)(C)C3)cc1
  /, 94.0, 89.5, 101.5
[63] NC(=O)CSc1ncc2c(n1)-c1ccccc1N(Cc1cccc(F)c1)S2(=O)=O
  /, 91.5, 83.8, 104.1
[71] CC(C)C(=O)Nc1ccc2nc(SCCOc3ccccc3)sc2c1
  -22.0&-20.2, 102.5, 86.3, 103.4&101.8
